Screening data deposited in PubChem BioAssay by Johns Hopkins Ion Channel Center.
KCNQ2 pot: potentiators of rat KCNQ2 potassium channel; O88943; CHO-K1 KCNQ2, FluxOR thallium flux fluorescence; active compounds read high; B-score at 10 µM; 310,000 tested, 0.54% active;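 active = fluorescence ratio B-score at least 3 SD of library B-scores, with initial fluorescence B-score within 3 SD, cut at about 5.3 in these data; same plate scores as AID 2156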;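 note: B-score of peak minus minimum over baseline fluorescence ratio after K+ and Tl+ stimulus; positive B-score means potentiation of KCNQ2 with more thallium influx and brighter signal; only the inactives scoring about 0 or higher are listed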
Target sequence (O88943 whole entry, looked up): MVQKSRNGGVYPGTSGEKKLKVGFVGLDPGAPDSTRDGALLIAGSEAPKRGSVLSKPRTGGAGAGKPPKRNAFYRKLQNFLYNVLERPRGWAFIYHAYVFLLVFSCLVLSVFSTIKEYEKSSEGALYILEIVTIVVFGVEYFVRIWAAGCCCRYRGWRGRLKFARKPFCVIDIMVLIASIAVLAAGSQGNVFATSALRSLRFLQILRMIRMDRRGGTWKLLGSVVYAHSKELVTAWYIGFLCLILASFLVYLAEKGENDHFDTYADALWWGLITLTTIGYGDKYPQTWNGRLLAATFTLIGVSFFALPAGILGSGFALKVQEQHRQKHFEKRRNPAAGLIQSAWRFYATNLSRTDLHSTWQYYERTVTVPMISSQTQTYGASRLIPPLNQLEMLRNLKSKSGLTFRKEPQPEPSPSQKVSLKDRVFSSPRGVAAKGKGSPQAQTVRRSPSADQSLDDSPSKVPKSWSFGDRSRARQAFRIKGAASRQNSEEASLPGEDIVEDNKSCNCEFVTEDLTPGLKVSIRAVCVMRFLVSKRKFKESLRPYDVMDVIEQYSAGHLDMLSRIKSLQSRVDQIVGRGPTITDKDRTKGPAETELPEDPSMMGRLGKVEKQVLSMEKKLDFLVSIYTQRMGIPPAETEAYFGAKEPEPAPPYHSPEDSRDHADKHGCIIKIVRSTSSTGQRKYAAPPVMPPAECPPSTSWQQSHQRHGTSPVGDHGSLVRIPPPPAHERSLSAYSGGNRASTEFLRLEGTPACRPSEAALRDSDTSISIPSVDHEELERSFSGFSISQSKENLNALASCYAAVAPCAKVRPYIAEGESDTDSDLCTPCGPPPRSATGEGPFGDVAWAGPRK
KCNQ2 pot baseline: further read-out of KCNQ2 pot, marked with its call; B-score; compound at 10 µM; measured here: initial fluorescence intensity artifact check;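 brightness before thallium and not channel activity; 0 = typical well and far values either way flag optical interference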
* = called active by the depositor. An excerpt, so the mix of outcomes need not match the whole.

Value order: KCNQ2 pot baseline	KCNQ2 pot
CCCCOC(=O)Nc1nnc(-c2ccccc2OC)s1
  0.42	0.01
COc1ccc2nc(NC(=O)C3CCCO3)sc2c1 (stereo unspecified)
  0.42	0.27
O=C(CN1C(=O)COc2ccccc21)NCCN1CCCC1
  0.75	0.99
O=C(N/N=C/c1ccc(OC(=O)c2ccccc2)cc1)c1ccc(CN2CCOCC2)cc1
  -0.78	1.1
CCn1c2ccccc2c2cc(/C=N/n3c(C)nnc3C)ccc21
  0.75	0.06
CCOc1ccc(OCC)c(NC(=O)C2CCCN(S(=O)(=O)c3ccc(C)cc3)C2)c1 (stereo unspecified)
  0.12	0.95
O=C(CNC(=O)C(c1ccccc1)c1ccccc1)N/N=C/c1ccc(O)c([N+](=O)[O-])c1
  -0.86	0.41
c1ccc(-c2nnc(-c3ccccn3)c(-c3ccccn3)n2)nc1
  -0.07	0.18
Cc1nc(-c2ccccc2)cn(O)c1=O
  1.3	0.51
CSc1nnc(-c2cccc(NC(=O)c3ccccc3)c2)n1C
  0.97	0.29
O=C(NC(NC(=S)N1CCOCC1)C(Cl)(Cl)Cl)c1ccc(Cl)cc1 (stereo unspecified)
  0.03	2.6
Cc1ccc(C2=NS(=O)(=O)N(C)C(C(=O)Nc3ccc(F)cc3F)=C2)cc1
  -1.9	2.6
O=C(Nc1ccc(Cl)cc1)c1ccc2snnc2c1
  1.3	1
COCCSc1ccccc1C(=O)Nc1cccnc1
  0	0.36
COc1ccccc1N1CCN(CCCNC(=O)Nc2ccccc2C)CC1
  0.13	0.54
CCC(=O)Nc1cccc(NC(=O)c2ccccc2Br)c1
  -2	0.05
COc1cc(/C=N/NC(=O)c2c(-c3c(Cl)cccc3Cl)noc2C)ccc1OCC(N)=O
  1.1	0.24
CC(C)c1ccc(OCC(O)CN2CCCC2)cc1 (stereo unspecified)
  -0.57	1.7
O=C(c1cccc(F)c1)N1CCCC(C(=O)N2CCCC2)C1 (stereo unspecified)
  0.74	0.13
CN1CCN(C(=S)c2ccc(Br)cc2)CC1
  1	0.35
CC(C)OCCCNC(=O)C1CCN(S(=O)(=O)c2ccc3nc4c(c(C(=O)O)c3c2)CCCCC4)CC1
  0.68	0.95
O=C(CCCN1C(=O)/C(=C\c2cccs2)SC1=S)Nc1ccc(C(=O)O)cc1
  2.1	0.17
COc1cc(/C=C2/C(=O)NN(c3ccc(Cl)c(Cl)c3)C2=O)cc([N+](=O)[O-])c1O
  0.13	2.1
COc1ccc(OC)c2c(N3CCN(C)CC3)cc(C(F)(F)F)nc12
  0.02	0.89
COC(=O)N1C(=O)[C@](CC(C)C)(c2ccccc2)N1C(=O)OC
  2.2	1.3
Cc1cccc(C(=O)Nc2scc(CC(C)C)c2C(=O)O)c1
  -1.4	2.7
COc1ccccc1N1CCN(C(=O)COc2ccc(S(=O)(=O)NC(C)C)cc2)CC1
  0	1.4
Cc1c(NC(=O)c2cc(-c3ccc(Cl)c(Cl)c3)on2)c(=O)n(-c2ccccc2)n1C
  -1.4	1.3
NC(=O)c1cc(S(=O)(=O)N2CCCC2)ccc1OCc1ccc(F)cc1
  -2.1	1.5
CCN(Cc1cc2cc(OC)ccc2[nH]c1=O)C(=O)c1ccncc1
  0.59	0.1

By substructure, those above with an aryl thioether with sulfur outside any ring.
Value order: KCNQ2 pot baseline	KCNQ2 pot
CSc1nnc(-c2cccc(NC(=O)c3ccccc3)c2)n1C
  0.97	0.29
COCCSc1ccccc1C(=O)Nc1cccnc1
  0	0.36

A different layout for 2 compounds above:
c1ccc(-c2nnc(-c3ccccn3)c(-c3ccccn3)n2)nc1
  KCNQ2 pot baseline = -0.07	KCNQ2 pot = 0.18

Cc1nc(-c2ccccc2)cn(O)c1=O
  KCNQ2 pot baseline = 1.3	KCNQ2 pot = 0.51

Going on with the list:
Value order: KCNQ2 pot baseline	KCNQ2 pot
O=C(c1ccccc1F)N1C(=O)c2cccc3cccc1c23
  -0.16	0.2
N#C/C(C(N)=O)=C1/SC=C(c2ccccc2)N1c1ccccc1
  -0.01	0.08
CC(=O)N1CCC(N(CCN2CCOCC2)C(=S)Nc2ccccc2C)CC1
  0.28	0.28
N#Cc1c(Cl)nc2c(c1C#N)CCCC2
  1	0.14
C=CCC(C(=O)OC)(C(=O)OC)c1ccc([N+](=O)[O-])cn1
  1.3	0.56
CCCn1c(/N=C/c2c[nH]c3ccccc23)nc2ccccc21
  -3	3.6
CCOc1cc(/C=N/NC(=O)NN(C)c2ncc(C(F)(F)F)cc2Cl)ccc1O
  0.42	0.4
CCSc1nc(N)c2c3c(sc2n1)CCC3
  -0.99	1.6
Cc1c(C(=O)O)sc2[nH]c(=O)n(Cc3ccccc3)c(=O)c12
  0.42	1.2
Cc1ccc(NC(=S)N2CCN(Cc3ccccc3)CC2)c(C)c1
  -0.68	0.13
O=C(CCN1CCOCC1)Nc1cc(C(=O)Nc2ccc(Cl)cc2)ccc1N1CC2CC(C1)c1cccc(=O)n1C2 (stereo unspecified)
  0.32	1.1
COc1ccc(S(=O)(=O)n2ccc(-c3ccc4c(c3)CCC(C)(C)O4)n2)cc1
  -1.2*	8.2*
COc1ccc(-c2noc(CN(C)C(=O)c3ccco3)n2)cc1
  -0.08	2.2
COc1ccc(S(=O)(=O)N2CCN(CCC(=O)Nc3ccccc3F)CC2)cc1
  -0.05	1.4
Cc1cc([N+](=O)[O-])nn1CCCC(=O)NCc1ccc(F)cc1
  -0.73	2.9
O=C(c1ccc2c(c1)OCO2)N1CCN(C(=O)c2ccco2)CC1
  0.56	2.3
O=C(NCS(=O)(=O)c1ccccc1)c1ccccc1
  -0.35	1.6
N#Cc1ccsc1NC(=O)C1CC(=O)N(Cc2ccccc2)C1 (stereo unspecified)
  0.55	1.9
O=C(CCC(=O)Nc1cccc([N+](=O)[O-])c1)N/N=C/c1cccs1
  0.15	0.24
NC(=O)NC(=O)CSc1nnc(-c2ccc(Cl)cc2)n1CC1CCCO1 (stereo unspecified)
  -0.88	1.4
Cc1ccc2[nH]c(CN3CCC(CO)(CC4CCCCO4)CC3)c(C)c2c1 (stereo unspecified)
  0.08	0.06
Cc1nc2cc(NC(=O)CS(=O)(=O)c3ccc(F)cc3)ccc2s1
  -0.46	2.6
O=C(O)c1cccnc1SCC(=O)N1CCCCCC1
  0.04	0.68
O=C(Nc1ccccc1N1CCOCC1)c1cc(F)cc(F)c1
  0.04	0.36
COc1ccc(C(=O)O/N=C/c2ccc(S(=O)c3ccc(Cl)cc3)nc2)cc1 (stereo unspecified)
  0.14	0.1
Cc1cc(OC(=O)c2ccccc2Cl)c([N+](=O)[O-])c(=O)[nH]1
  0.92	1.5
O=C(CCN1C(=O)/C(=C/c2ccc(F)cc2)SC1=S)NNC(=O)c1cccnc1
  -0.51	0.93
Cc1cc(=O)oc2cc(OCC(=O)NCc3ccco3)ccc12
  0.79	0.01
C=CCNC(=O)c1cnc2n(c1=O)CCS2
  -2	1.1
COc1ccc(N2CC(C(=O)N3CCN(C(=O)c4ccco4)CC3)CC2=O)cc1 (stereo unspecified)
  0.02	1.4
CCOC(=O)c1sc(N)nc1C(C)(C)C
  -0.49	1.3
O=C(Cc1ccc(F)cc1)NC1CCSC1=O (stereo unspecified)
  0.74	0.02
O=C(NC1CC2CCC(C1)N2Cc1ccccc1)c1ccccc1Br (stereo unspecified)
  -0.01	0.94
CCOc1ccc(S(=O)(=O)N(CC)CC(=O)NCc2ccncc2)cc1C
  0.81	0.67
O=c1[nH]c2c(s1)C(c1ccccc1)C1C3CCC(C3)C1S2 (stereo unspecified)
  0.4	2.8
O=C(NCc1ccccc1F)C1CCN(C(=O)c2sccc2-n2cccc2)CC1
  -0.95	1.2
CCN(CCCNC(=O)C1CCC(=O)N1Cc1ccc(C)cc1)c1cccc(C)c1 (stereo unspecified)
  0.85	1.8
CCn1c(COc2ccc(=O)n(-c3ccccc3)n2)n[nH]c1=S
  0.45	0.7
Cc1nn(C)c(=O)n1N(C)c1ncc(C(F)(F)F)cc1Cl
  0.07	1.4
CC1CC(=O)Nc2ccccc2N1S(=O)(=O)c1ccc(F)cc1F (stereo unspecified)
  0.51	0.48
COC(=O)c1ccc(N=NN2CCOCC2)cc1
  -1.3	0.39
O=C(Nc1ccccc1C(=O)N1CCCC1)c1ccc(Cl)cc1Cl
  -1.1	0.22
Cc1nnc(SCC(=O)Nc2cccc([N+](=O)[O-])c2)n1CC1CCCO1 (stereo unspecified)
  0.42	1.3
CCOC(=O)N1CCN(C(=O)c2c(N)no[n+]2[O-])CC1
  -1.3	0.57
CC(Nc1ncnc2nc[nH]c12)c1ccccc1 (stereo unspecified)
  -1.2	1.9
CCn1c(SCC(=O)NCc2ccco2)nc2cccnc21
  -1.2	0.05
Cc1ccccc1Nc1c(C)c(C)nc2ncnn12
  -1.4	2.5
Cc1cccc(CN2CCN(C(=S)Nc3ccccc3)CC2)c1
  0.21	2.7
Cc1cc(C)nc(/N=C2\NC(=O)CC(C(=O)O)N2c2cccc(Cl)c2)n1 (stereo unspecified)
  0.05	0.34
O=C(Nc1cccc(F)c1)Nc1cnccn1
  1.9	0.27
O=C(NCc1cccc(C(F)(F)F)c1)c1cccc(Cl)c1Cl
  -0.03	4.6
COc1cc(C(=O)NCc2nc(C)cs2)ccc1OC1CCN(C(C)=O)CC1
  -0.6	0.02
CC(C)CCNC(=O)CO/N=C/c1ccccc1OC(F)F
  0.48	0.15
Cc1ccc(-c2ccc(=O)n(CC(=O)NCCCN3CCCCC3)n2)cc1
  -0.66	1
O=C(NCc1nc2ccccc2[nH]1)C1=C[C@H](C2CCCCC2)C[C@H](OCCCCO)O1
  -0.7	0.49
COc1ccc(C(=O)N=c2sccn2C)cc1
  0.06	1.6
CCOc1cc(C(=S)N2CCOCC2)ccc1OS(=O)(=O)c1ccc(C)cc1
  0.38	1.9
Cc1ccc(CNC(=O)C(=O)NCC2OCCN2C(=O)c2ccc3c(c2)OCO3)cc1 (stereo unspecified)
  1.4	1.2
COc1ccc(NC(=O)CS(=O)(=O)c2ccccc2Cl)cc1
  -0.89	1
COc1ccc(NC(=O)C2C3C=CC(O3)C2C(=O)O)cc1 (stereo unspecified)
  -0.57	0.47

Compound profiles, as listed above.
COC(=O)c1ccc(N=NN2CCOCC2)cc1 is listed with KCNQ2 pot baseline = -1.3; KCNQ2 pot = 0.39
O=C(CN1C(=O)COc2ccccc21)NCCN1CCCC1 is listed with KCNQ2 pot baseline = 0.75; KCNQ2 pot = 0.99

New compounds follow
Value order: KCNQ2 pot baseline	KCNQ2 pot
CC(=O)Oc1ccccc1N(C(C)=O)S(=O)(=O)c1ccc2ccccc2c1
  0.2	1.2
CCCC(=O)Nc1cccc2c1CCCC2
  1.3	2.5
COc1ccc(CNC(=O)CSc2nnc3nc(C)cc(C)n23)cc1OC
  -0.74	0.49
CC(C)(C)c1ccc(NC(=O)c2ccsc2)cc1
  -1.1	2.8
CCCn1c2ccc(F)cc2c2nnc(SCCN3CCCCC3)nc21
  1.2	3.5
COc1ccc(Cc2nc3ccc(S(=O)(=O)N4CCOCC4)cc3[nH]2)cc1OC
  -0.03	0.97
NC(=O)c1cnn(-c2cc(Oc3ccccc3)ncn2)c1N
  -0.13	0.75
CCOC(=O)Nc1ccc(S(=O)(=O)Nc2cc(C)nc(C)n2)cc1
  1.3	1.5
O=C(COC(=O)c1ccco1)NCc1ccco1
  -0.55	1.1
Cc1ccc(NC(=O)CC2C(=O)N(Cc3ccccc3)C(=S)N2NC(=O)c2cccc(F)c2)c(C)c1 (stereo unspecified)
  -1.4	0.1
COc1cccc(N(C(=O)c2snc(C(N)=O)c2N)C(C(=O)NCC2CCCO2)c2ccc(C)o2)c1 (stereo unspecified)
  -1.5	1.8
O=C(NCC1(c2ccccc2)CCOCC1)c1ccc(Br)o1
  0.3	0.49
CC(C)N(Cc1nccn1C)C(=O)c1cc(COc2ccc3ncccc3c2)on1
  0.14	2.7
CCOC(=O)CN(C(=O)c1snc(C(N)=O)c1N)C(C(=O)NC1CCCCC1)c1ccc(F)cc1 (stereo unspecified)
  -2	3.6
CC(=O)Nc1ccc(S(=O)(=O)NCC(=O)OCC(=O)NC(=O)C2CCCCC2)cc1
  -0.01	1.1
Cc1ccc(S(=O)(=O)NC(C(=O)O)c2ccccc2)cc1 (stereo unspecified)
  0.46	0.06
O=C(Nc1ccc(NC(=O)c2ccco2)nc1)c1cccc(F)c1
  -1.2	0.02
O=C1CCCN1c1ccc(S(=O)(=O)Nc2ccc3c(c2)OCCO3)cc1
  -0.28	1
CCn1c(SCC(=O)Nc2ccc(OC)cc2)nc2nc3c(cc2c1=O)CCCC3
  0.04	0.04
CCC1Oc2ccccc2N(CC(=O)Nc2ccccc2OC)C1=O (stereo unspecified)
  0.12	1.2
COc1ccc(F)cc1S(=O)(=O)NC1CC(C)(C)NC(C)(C)C1
  0.2	0.05
CCCc1c(C(=O)Nc2ccc(F)cc2)cnn1-c1ccccc1
  2.1	1.8
Cc1cc(NC(=O)C2CCN(S(=O)(=O)c3cccs3)CC2)no1
  0.04	0.27
CC(C)(C)OC(=O)N1CCC(C(=O)N[C@@H](Cc2ccccc2)C(=O)O)CC1
  -0.2	1.3
COc1ccc(/C=N/NC(=O)c2c(C)n(C)c3ccc(OC)cc23)c(OC)c1
  -0.36	0.56
CCCC(=O)Nc1c2c(nn1-c1cccc(Cl)c1)CS(=O)(=O)C2
  0.18	0.19
